Screens deposited in PubChem BioAssay by National Center for Advancing Translational Sciences (NCATS).
TRPML1 blocker: qHTS for Inhibitors of the Human Mucolipin Transient Receptor Potential 1 (TRPML1); TRPML1-inducible cells, Ca2+ dye fluorescence, FDSS; stronger effect = lower value; inhibition of EC80 agonist-evoked calcium signal; activity change, negative = inhibition, % (concentration not given with the values); AID 624415, 2012; Mucolipin-1 (Homo sapiens), Q9GZU1; 390,000 tested, 0.02% active; in the data active means activity change below about -50%; inconclusive means about -30% to -50%; inactive means above about -30%;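 further: stimulus is agonist 54-4 at its EC80 concentration; on the % scale 0 is the no-effect control and ±100 the full control effect; compound concentration not given in the record; the text of the record puts the active cut at -80%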
Target sequence (Q9GZU1 whole entry, looked up): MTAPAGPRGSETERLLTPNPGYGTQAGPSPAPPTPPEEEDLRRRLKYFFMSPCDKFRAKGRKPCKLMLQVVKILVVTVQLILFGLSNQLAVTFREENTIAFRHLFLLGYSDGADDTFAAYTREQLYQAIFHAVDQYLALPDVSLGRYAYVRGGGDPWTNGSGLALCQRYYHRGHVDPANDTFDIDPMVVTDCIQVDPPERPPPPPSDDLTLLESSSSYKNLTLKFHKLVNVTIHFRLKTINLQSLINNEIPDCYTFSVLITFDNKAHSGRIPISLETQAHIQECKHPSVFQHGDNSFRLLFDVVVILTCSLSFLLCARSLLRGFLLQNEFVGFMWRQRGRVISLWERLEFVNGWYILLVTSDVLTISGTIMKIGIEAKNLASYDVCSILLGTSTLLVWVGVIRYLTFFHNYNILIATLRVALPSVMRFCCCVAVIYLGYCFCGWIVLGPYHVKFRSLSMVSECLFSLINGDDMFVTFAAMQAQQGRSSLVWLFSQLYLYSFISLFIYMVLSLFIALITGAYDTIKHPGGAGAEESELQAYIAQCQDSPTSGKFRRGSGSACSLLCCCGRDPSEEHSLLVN
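Calcium fluorescence in TRPML1-DL cells induced overnight with Tet: a 110 s read after compound pin addition, then a 110 s antagonist read after challenge with 54-4 at 4 uM final (EC80).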
D2 potentiator: Beta-Arrestin HTS for Positive Allosteric Modulators of the Human D2 Dopamine Receptor: Potentiators | D(2) dopamine receptor (Homo sapiens), P14416 | DiscoveRx D2 beta-arrestin cells, luminescence, 90 min; 100% = 57 uM dopamine signal | potentiation, % (concentration not given with the values) | 360,000 tested, 0.23% active; active = potentiation of 50% or more; inconclusive = 30% to 50%; inactive = 30% or less;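 further: compound concentration not given in the record; tested on top of an EC20 dose of dopamine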
Target sequence (P14416 whole entry, looked up): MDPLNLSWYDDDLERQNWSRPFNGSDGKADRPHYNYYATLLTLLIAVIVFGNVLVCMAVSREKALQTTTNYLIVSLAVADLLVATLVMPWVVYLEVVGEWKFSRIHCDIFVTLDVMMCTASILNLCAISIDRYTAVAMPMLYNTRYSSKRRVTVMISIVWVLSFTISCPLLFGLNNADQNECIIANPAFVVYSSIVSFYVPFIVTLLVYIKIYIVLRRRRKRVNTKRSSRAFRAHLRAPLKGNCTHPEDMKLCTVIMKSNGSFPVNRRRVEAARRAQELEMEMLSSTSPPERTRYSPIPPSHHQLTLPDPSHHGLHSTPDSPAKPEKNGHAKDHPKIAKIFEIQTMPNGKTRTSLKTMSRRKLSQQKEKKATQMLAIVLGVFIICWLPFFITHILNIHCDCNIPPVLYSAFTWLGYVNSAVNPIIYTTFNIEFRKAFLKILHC
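PathHunter beta-arrestin assay in DiscoveRx D2 cells. Compounds were added with an EC20 of dopamine (50 nM final) for 90 min at 37 deg C. Luminescence was read 1 h after detection reagent, with 57 uM dopamine as the EC100 control.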
TRPML1 ag: qHTS for Agonists of the Human Mucolipin Transient Receptor Potential 1 (TRPML1) | AID 624414, 2012 | activation, % (concentration not given with the values) | 410,000 tested, 0.12% active | Mucolipin-1 (Homo sapiens), Q9GZU1 | TRPML1-expressing cells, Ca2+ dye fluorescence, FDSS; host cell line not named in the record; reference of the full effect not given here; in the data active = activation above about 50%; inconclusive = about 30% to 50%; inactive = below about 30%; further: 0% is about no effect; the text of the record puts the active cut at 80%
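Tet-induced TRPML1-DL cells, 1,500 per well, cultured overnight, were loaded with a no-wash Ca2+ dye for 45–90 min. Calcium fluorescence was recorded on the FDSS for 110 s after compound addition, before the EC80 agonist (4 uM 54-4) was added.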
Six1-Eya2 blk: qHTS Assay for Inhibitors of the Six1/Eya2 Interaction | Homeobox protein SIX1 (Homo sapiens) + Protein phosphatase EYA2 (Homo sapiens), … | 360,000 tested, 0.56% active | AID 651725, 2012 | AlphaScreen GST-Six1/His-Eya2 binding, biochemical; stronger effect = lower value; control for the full effect not named in the record | activity change, % (no concentration beside the values); in the data active = activity change below about -65%; inconclusive = about -30% to -65%; inactive = above about -30%; further: on the % scale 0 is the no-effect control and ±100 the full control effect; compound concentration not given in the record
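Six1/Eya2 binding was read as AlphaScreen signal after compounds were pinned into GST-Six1 plus His-tagged Eya2 (5X stock 250/500 nM) in pH 8.0 Tris/NaCl/TCEP buffer, beads added, then incubated 1 h, 37 C, dark.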
PINK1 modulator: A Quantitative High throughput Screen to Identify Chemical Modulators of PINK1 Expression; AID 624263, 2012; 410,000 tested, 0.2% active; Potency, µM (doses to about 76.6 µM), for the others: at the top dose activation (PINK1 increase), hits mostly activators; PINK1 immunofluorescence, high-content cytometry, 24 h; active = well fitted activation curve with a large enough effect; inconclusive = small, poorly fitted or top-dose-only effect; inactive = flat fitted curve, though single readings scatter; cell line not stated here;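 further: potency means the concentration at half of the fitted maximal effect; % of control where 0% means no effect; nearly all actives have a fitted effect of over 65% in size; a mitochondrial uncoupler was the plate control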
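Readout is PINK1 immunofluorescence, quantified alongside mitochondrial, cell and nuclear markers by laser-scanning microplate cytometry. Cells from a stable line were exposed to compound titrations (5 concentrations) for 24 hours, with CCCP controls.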
D2 ag: Beta-Arrestin HTS for Positive Allosteric Modulators of the Human D2 Dopamine Receptor: Agonists; activation, % (test concentration not listed); AID 624465, 2012; DiscoveRx PathHunter D2 beta-arrestin, luminescence, 90 min; 100% = 57 uM dopamine signal; D(2) dopamine receptor (Homo sapiens), P14416; 360,000 tested, 0.084% active; in the data active = activation above about 40%; inconclusive = about 15% to 40%; inactive = below about 15%; further: compound concentration not given in the record; the text of the record calls up to 30% inactive
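DiscoveRx PathHunter D2 beta-arrestin cells (2,100/well) attached overnight, then compound-stimulated 90 min at 37 C in HBSS/10 mM HEPES/0.1% Tween-20 buffer; beta-galactosidase complementation read by luminescence after 1 h at ambient temperature. Dopamine 57 uM final (EC100) as control.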
Numbers without * were called inactive; ? = inconclusive; · = no result given; & = joins results of further samples; [ ] = another dose, or the depositor's remark.

SMILES	TRPML1 blocker	D2 potentiator	TRPML1 ag	Six1-Eya2 blk	PINK1 modulator	D2 ag
O=C(O)CC1(CC(=O)NCc2ccc(-c3cccs3)cc2)CCCCC1	-7	0	-0.6	8	-0.2%	1.3
COc1ccc(CCN2CC(C(=O)Nc3ccccc3F)CC2=O)cc1OC (stereo unspecified)	-5	-4	-0.5	3	0.3%	-1.0
CN(C(=O)C1=CC(c2ccc3c(c2)OCO3)=NS(=O)(=O)N1C)c1ccccc1	-18	·	0.4	·	-0.4%	·
COc1ccc(C2C(C(N)=O)=C(C)Nc3nc(CCCO)nn32)cc1OC (stereo unspecified)	16	-4	0.0	-2	0.4%	-4.4
COc1cc(OCc2ccccc2)c2c(CCC(=O)O)cc(=O)oc2c1	44	-12	0.5	-2	-6.2%	-0.5
CC1CNCCN1S(=O)(=O)c1cccc2cnccc12 (stereo unspecified)	9&-6	-5&-11	-0.4&-0.3	1&6	0.2%&1.7%	2.5&3.5
Nn1c(SCC(=O)Nc2ccccc2)nnc1C1CCCCC1	-3	-26	-1.0	8	-0.6%	-0.7
O=C(c1ccco1)N1CCN(C(=O)c2snc3ccc(Cl)cc23)CC1	20	-16	-0.8	-7	0.1%	-2.1
Cc1cc(C(=O)Nc2ccc(Cl)cc2)n(-c2ccccc2)n1	-2	-18	1.4	1	1.1%	6.5
COC(=O)c1ccc(CNC(=O)COC(=O)/C=C/c2ccc(O)c(OC)c2)cc1	21	-9	1.2	-8	0.4%	-2.7
Cc1sc(NC(=O)COc2cccc(-n3cnnn3)c2)c(C#N)c1C	2	-17	0.6	1	14%[38.3 µM]	-3.1
C[C@H]1CN([C@@H](C)CO)C(=O)c2cc(NC(=O)C3CCCCC3)ccc2O[C@H]1CN(C)S(=O)(=O)c1ccccc1	0	-6	0.0	-2	1.5%	-2.2
COc1cccc(OC)c1OCCCCN1CCCCC1	-1	-5	-0.5	-1	0.6%	-2.5
COc1ccc(NC(=O)C2Cc3cccc(OC)c3O/C2=N\O)cc1 (stereo unspecified)	3	-5	0.4	1	4.3%	0.5
COc1ccc(CC(=O)OCC(=O)Nc2ccc(Cl)cn2)cc1	-3	-11	0.4	7	3.7%	-0.2
c1ccc(-c2nc3nc4ccccc4nc3n2Cc2ccco2)cc1	9	-35	0.5	-21	0.6%	-5.7
COc1ccc(NC(=O)Nc2ccc3c(c2)OCO3)c(C)c1	39	-4	-0.2	0	1.9%	1.3
Cn1cc(CCNC(=O)C2CCC(=O)N(CCc3ccc(Cl)cc3)C2)cn1 (stereo unspecified)	-7	-7	-0.3	0	3.7%	2.2
Cc1ccc(N(CC(=O)Nc2ccccc2-c2ccccc2)S(=O)(=O)c2ccccc2)c(C)c1	73	-6	2.3	5	3.9%	-5.8
CN(C(=O)CCNC(=O)Cn1cnc2ccccc2c1=O)c1ccccc1F	5&-5	-7	0.0&-0.2	-3	2.2%&4.3%	-1.1
C(=C\n1nnc2ccccc21)/c1ccccn1	-4	-12	-0.6	-7	0.5%	1.0
Cc1cc(Cl)ccc1OCC(=O)NNC(=O)C1CCCO1 (stereo unspecified)	-7	-7	0.2	-1	0.5%	-0.7
c1ccc(OCCSc2nnnn2C2CCCCC2)cc1	23	-6	2.2	37	1.6%	1.6
CSCCC(NC(N)=O)C(=O)N(C)CC(=O)Nc1cc(C)ccc1C (stereo unspecified)	-19	-8	0.2	2	1.2%	-4.6
c1ccc(-c2nc3ccccc3o2)nc1	12	4	-1.3	1	3.0%	-3.6
CCSc1ncc(C)cc1[N+](=O)[O-]	-13	-6	3.0	-6	2.0%	1.0
COc1ccc(-n2nc(C(=O)N3CCN(c4cccc(C(F)(F)F)c4)CC3)c3c4ccccc4n(C)c3c2=O)cc1Cl	27	·	-0.5	·	1.1%	·
CC(C)OCCCn1c(SCC(=O)N2CCc3ccccc32)nc2ccccc2c1=O	2	-5	1.1	6	2.7%	-2.6
COc1ccc(NC(=O)Nc2nnc(CC(=O)NCc3ccccc3)s2)cc1	-11	2	0.0	4	21%	-1.7
COC(=O)c1cccc(NC(=O)Cc2coc3cc(OC)ccc23)c1	-3	7	1.4	-2	-0.9%[38.3 µM]	0.7
Cc1cccc(C(=O)n2c(=S)nc3ccccn32)c1	2	-9	0.4	-1	0.8%	0.8
COc1ccc(-n2cnnc2SCC(=O)N2CCN(S(=O)(=O)c3ccccc3)CC2)cc1	-4	7	-0.1	9	2.0%	-4.1
C=CCn1c(SCC(=O)c2cc(C)n(C(C)COC)c2C)nc2sc(C)c(C)c2c1=O (stereo unspecified)	-5	-7	0.4	?	7.7%[38.3 µM]	-1.4
CC(=O)/C(=N/Nc1ccc([N+](=O)[O-])cc1)N1CCCc2ccccc21	50	-9	2.1	0	-0.5%	-6.8
C=CCNC(=O)/C(C#N)=C\c1cc(Cl)c(O)c(OCC)c1	-12	-9	1.3	-7	1.5%	-3.3
CN(CCOc1ccccc1)CC(=O)Nc1ccc(Cl)cc1[N+](=O)[O-]	5	-27	5.0	?	0.9%	-3.7
CCN(CC)CCN(C(=O)c1cc(Cl)sc1Cl)c1nc2cc3c(cc2s1)OCO3	-3	-28	0.0	-11	12%	-0.9
CCS(=O)(=O)c1ncc(N(Cc2ccccc2)Cc2ccco2)c(C(=O)Nc2cccc(Cl)c2C)n1	26	·	1.9	·	-1.2%	·
O=C1NC[C@H](CCCCN2C[C@H](Cc3ccc(O)cc3)N(CC3CCCCC3)C(=O)C2=O)N(CCC2CCCCC2)C1=O	·	·	-0.9	10	2.8%	·
O=C(c1ccc(F)cc1Cl)N(Cc1ccco1)C1CCS(=O)(=O)C1 (stereo unspecified)	14	14	0.6	0	2.3%	1.5
Cc1cccc(OCC(O)Cn2c(=N)n(Cc3ccccc3)c3ccccc32)c1 (stereo unspecified)	0	-5	1.1	-1	-0.4%	-4.8
Cc1cc(-c2ccccc2C(=O)Nc2ccccc2O)on1	-11	0	1.3	22	1.1%	0.9
CCOC1=C2CN(S(=O)(=O)c3ccc(C)cc3)[C@H](c3cccc(Cl)c3)C[C@@H]2N(S(=O)(=O)c2ccccc2[N+](=O)[O-])[C@H](c2ccccc2)C1	30	-2	-0.1	-8	14%	3.0
COc1cccc(CN(C)C[C@@H]2OCc3cnnn3CCCC(=O)N([C@@H](C)CO)C[C@H]2C)c1	9	-1	-0.1	-1	0.2%	-6.1
Cc1cc2cc(CN(CCN3CCOCC3)C(=O)Nc3ccccc3F)c(=O)[nH]c2cc1C	0	-5	0.1	-1	-0.4%	0.6
O=C(COCc1ccccc1)N[C@@H]1c2ccccc2CC[C@H]1OCc1ccccc1	48	·	0.6	-26	2.4%	2.1
CN(c1ccc(Cl)cc1)S(=O)(=O)c1nnc(NC(=O)C2CCCCC2)s1	22	·	0.3	·	1.3%	·
N#Cc1c(N)n(CCOC(=O)c2ccc(Cl)cc2)c2nc3ccccc3nc12	4	-6	-0.1	7	1.0%	-1.6
Cc1ccc(OCc2nnc(SCC(=O)O)n2N)cc1	32	7	-0.5	0	·	-2.4
Cc1ccc(CNC(=O)c2cc3c(=O)n4cccc(C)c4nc3s2)cc1	8	·	0.7	·	1.3%	·
CCCOc1ccccc1OCC(=O)Nc1cc(Cl)ccc1-n1cncn1	43	-7	-0.1	4	3.2%	2.2
COc1ccc(NC(=O)C2CCCN(c3nccc(C)n3)C2)cc1 (stereo unspecified)	-3	-4	-1.1	0	0.8%	3.9
COc1ccc(-c2cc3nc4ccccc4n3c(N)c2C#N)cc1	·	4	·	8	1.4%	5.3
CCNC(=O)/C(C#N)=C/c1c(N2CCCCCC2)nc2ccccn2c1=O	-1	-6	1.7	-4	2.8%	1.0
Cn1cnnc1SCC(=O)c1ccc(OC(F)F)cc1	11	-4	3.0	3	1.1%[38.3 µM]	-1.8
COc1ccc(NC(=O)c2cc(=O)[nH]c(=O)[nH]2)cc1S(=O)(=O)Nc1ccccc1Cl	-9	1	0.0	-10	4.5%	0.4
Cc1oc(-c2cccc(C(F)(F)F)c2)nc1CN1CCOCC1	21	-15	0.0	-2	2.2%	-3.6
O=C1CC2CCCN2C=C1I (stereo unspecified)	-12	0	-0.2	0	0.9%	-1.2
CCCc1nnc(NC(=S)Nc2ccccc2)s1	-1	-12	0.2	5	2.2%	-5.9
COCCn1c(C)cc(C(=O)COC(=O)c2ccc(NC(=O)CC#N)cc2)c1C	-10	8	0.1	-6	1.1%	-9.0

Complete entries, looked up by structure:
Entry for COCCn1c(C)cc(C(=O)COC(=O)c2ccc(NC(=O)CC#N)cc2)c1C = TRPML1 blocker: -10; D2 potentiator: 8; TRPML1 ag: 0.1; Six1-Eya2 blk: -6; PINK1 modulator: 1.1%; D2 ag: -9.0
Entry for COc1ccc(NC(=O)c2cc(=O)[nH]c(=O)[nH]2)cc1S(=O)(=O)Nc1ccccc1Cl = TRPML1 blocker: -9; D2 potentiator: 1; TRPML1 ag: 0.0; Six1-Eya2 blk: -10; PINK1 modulator: 4.5%; D2 ag: 0.4

(next part)
SMILES	TRPML1 blocker	D2 potentiator	TRPML1 ag	Six1-Eya2 blk	PINK1 modulator	D2 ag
Cc1c(Cc2ccccc2)c(=O)oc2cc(OC(=O)c3ccccc3)ccc12	-5	-11	-0.6	8	-2.4%	-0.2
CC1(C(=O)O)CCC(C(=O)Nc2ccc(OC(F)(F)Cl)cc2)C1(C)C (stereo unspecified)	5	-8	0.4	6	1.3%	2.4
Cc1c(CCOC(=O)CC23CC4CC(CC(C4)C2)C3)sc[n+]1CC(=O)c1ccccc1	12	-6	1.1	-7	-2.3%	-3.4
Cn1c(=O)[nH]c(=O)c2c1nc(Br)n2Cc1ccccc1F	-4	-1	-0.3	-3	0.9%	-0.3
Cc1ccc(Nc2ncnc3sc(C)c(C)c23)cc1C	1	-19	1.0	-2	7.1%	-6.0
COc1ccc(C(C)NC(=O)C2CCCO2)cc1OC (stereo unspecified)	-3	1	0.2	1	?	2.1
COc1ccc(NS(=O)(=O)c2ccc(NC(=O)C3CCCO3)cc2)cc1 (stereo unspecified)	4	2	1.1	8	-0.2%	3.7
Fc1ccc(NC(=S)NCCc2ccccc2)c(F)c1F	8	-13	0.6	6	·	0.7
